Lassa entry: blocks Lassa virus binding or cell entry; Lassa virus pseudotyped entry inhibition, cell-based qHTS; control for the full effect not named in the record; many of its hits are not listed in these tables; Potency, µM (top dose mostly 49.2 µM), for inactives: top-dose activity change, negative = inhibition, most hits filed as inhibitors; 4.1% of 18,000 active; AID 720533; active = well fitted inhibition curve with a large enough effect; inconclusive = small, poorly fitted or top-dose-only effect; inactive = no such curve, though single readings can be large or run the other way; tested in HEK293 cells; further: luciferase read-out
Marburg entry: Marburg virus entry inhibition; Potency, µM (series often up to 49.2 µM), inactives show at the top dose activity change, negative = inhibition, most hits filed as inhibitors; AID 720532; Marburg virus pseudotype entry/binding inhibition, cell-based; control for the full effect not named in the record; many of its hits are not listed in these tables; 6.5% of 18,000 active; active means well fitted inhibition curve with a large enough effect; inconclusive means small, poorly fitted or top-dose-only effect; inactive means no such curve, though single readings can be large or run the other way; tested in HEK293 cells; further: luciferase read-out
The depositor's hits bear a star; ? = inconclusive; · = no result given; & = joins results of further samples; ! = repeats disagree; [ ] = another dose, or the depositor's remark. On the % scale 0 is the no-effect control and ±100 the full control effect; potency means the concentration at half of the fitted maximal effect. Only part of the results is shown; rates above refer to the full screens.

SMILES	Lassa entry	Marburg entry
CO[C@@H]1CC[C@@]2(C)[C@@H](CC[C@@]3(C)[C@H]2CC=C2[C@H]4CC(C)(C)[C@H](O)[C@@H](OC(C)=O)[C@]4(CO)[C@H](O)C[C@]23C)[C@@]1(C)CO (tested in a mixture with another compound)	9%[17.8 µM]	-24%[17.8 µM]
CCCCCCCCCC(=O)O[C@H]1CC[C@H]2[C@@H]3CCC4=CC(=O)CC[C@@H]4[C@H]3CC[C@]12C	-11%	43%[activator]
CC(NC(=O)c1cc(F)ccc1F)c1nnc2n1CCN(Cc1ccccc1O)CC2 (stereo not given)	-3%	-8%
CCOC(=O)C1(C(C)C)Oc2ccccc2C(c2ccc(OC)cc2)=C1C(=O)OC (stereo not given)	?	-16%
O=C(O)c1ccccc1-c1ccc(C(F)(F)F)cc1	-1%	4%
Cn1cnc2c(F)c(Nc3ccc(Br)cc3Cl)c(C(=O)NOCCO)cc21	9%	8%
CC(C)OC(=O)c1cn(Cc2c(F)cccc2F)c2sc(-c3ccc(NC(=O)C(C)C)cc3)c(CN(C)Cc3ccccc3)c2c1=O	16µM*	2.5µM*
O=C(/C=C/c1ccc2c(c1)OCO2)c1cccs1	7%	-13%
CC1CCC(C(C)C)[C@H](O)C1 (stereo not given in full)	11%	-7%
O=S(=O)(NCCc1ccc(F)cc1)c1ccc(F)cc1Br	-1%	4%
O=C(c1nc2ncccn2n1)N1CCOc2ccc(C(O)C(c3ccccc3)c3ccccc3)cc2C1 (stereo not given)	-18%	4%
Cc1ncc(-c2ccc(F)cc2)c(C2CCCN(Cc3cccc(O)c3)C2)n1 (stereo not given)	6%	?
O=C(/C=C/c1ccc(O)c(O)c1)NC(=O)c1ccccc1O	1%	46%[activator]
O=C1CCc2c(ccc3ccccc23)O1	0%&4%	8%&8%
Cc1c(C(=O)NCC2CC2)sc2ncnc(NCCN3CCCCC3)c12	-22%	-18%
CCCN1CCC[C@H](c2cccc(O)c2)C1	0%	12%
CCC(C(N)=O)c1ccccc1 (stereo not given)	2%	-4%
C[C@@H](C[C@H](N)C(=O)O)C(=O)O	6%	2%
COc1ccc([C@H]2C[C@H](O)[C@@H](n3cc(COC(=O)c4ccccc4)nn3)CN2CC2CCCCC2)cc1	·	-48%
OCC1=CC[N+]2(Cc3ccccc3)CCC(O)[C@@H]12 (stereo not given in full)	7%	-14%
COC[C@H]1O[C@]2(c3ccccc3)CO[C@@H]1[C@@H](C=Cc1ccccc1)C2	·	26%[8.59 µM]
COC(=O)CCN(Cc1ccccc1)S(=O)(=O)c1ccccc1Br	12%	34%
CCCCC/C=C\C\C=C/C=C/C=C/[C@@H](SCC(N)C(=O)O)[C@@H](O)CCCC(=O)O (stereo not given in full)	2%	11%
CC(C)[C@H](NC(=O)[C@H](CCC(=O)O)NC(=O)[C@H](Cc1ccccc1)NC(=O)[C@@H](C)NC(=O)[C@@H](N)Cc1ccc(O)cc1)C(=O)N[C@H](C(=O)NCC(N)=O)C(C)C	-4%	3%
COc1ccc(OC[C@H]2CN3[C@H](c4ccc(Br)cc4)[C@H](C)CC[C@H]3C(=O)O2)cc1	11%&6%[8.59 µM]	-7%&2%[8.59 µM]

Carrying on:
SMILES	Lassa entry	Marburg entry
C=C[C@@]1(C)CC[C@H](O)[C@H]2C(=O)CCC[C@H]21	11%[8.59 µM]	-28%[8.59 µM]
CCC1=C[C@@H]2CN(C1)Cc1c([nH]c3ccccc13)[C@@](C(=O)OC)(c1cc3c(cc1OC)N(C)[C@H]1[C@@](O)(C(=O)OC)[C@H](OC(C)=O)[C@]4(CC)C=CCN5CC[C@]31[C@@H]54)C2	13µM*!	1.4µM*!
C=C1C2CC[C@@]3(C)C(c4ccoc4)OC(=O)C[C@@]13OC1CC(=O)C(C)(C)C(C(OC(C)=O)C(=O)OC)[C@@]12C (stereo not given in full)	0%	-23%
c1cc2c(c(NC3=NCCN3)c1)CCCC2	-12%	-8%
CC[C@H](C)[C@H](NC(=O)[C@H](CCCN=C(N)N)NC(=O)[C@H](CCCN=C(N)N)NC(=O)[C@H](CC(C)C)NC(=O)[C@H](Cc1ccccc1)NC(=O)CNC(=O)CN)C(=O)N[C@@H](CCCN=C(N)N)C(=O)N1CCC[C@H]1C(=O)N[C@@H](CCCCN)C(=O)N[C@@H](CC(C)C)C(=O)N[C@@H](CCCCN)C(=O)O	7%	-4%
CC(C)OCCCN1C=C2C(=O)C(C)(OC(=O)C3CCCC3)C(=O)C=C2C=C1c1ccsc1 (stereo not given)	-17%[8.59 µM]	?
COc1ccc(OC)c(-c2cc(Cl)c3c(c2)CC(CNC(=O)/C=C/c2ccccn2)O3)c1 (stereo not given)	2%	-2%
CC(C)CC1C(=O)N(Cc2cn(CCC3OCCCO3)nn2)CCS(=O)(=O)N1Cc1ccc(-c2ccc(F)nc2)cc1 (stereo not given)	-9%	?
CCCCCC1C(=O)CCC1CC(=O)OC (stereo not given)	-6%	11%
COc1cc2c3cc1Oc1cc(ccc1O)C[C@@H]1c4c(cc(OC)c(O)c4Oc4ccc(cc4)C[C@@H]3N(C)CC2)CC[N+]1(C)C	-9%	1%
O=C(O)CCC/C=C\C[C@@H]1CO[C@H](C(F)(F)F)O[C@@H]1c1ccccc1O	1%	8%
O=C1Nc2ccc(C(=O)c3ccco3)cc2/C1=C/c1cc(Cl)c(O)c(Cl)c1	·	?
C#CCNc1ccc2c(c1)OC[C@H](C)NS2(=O)=O	·	8%
CN(C)CC1CCn2c(c(C3=C(c4cn(C)c5ccccc45)C(=O)NC3=O)c3ccccc32)C1 (stereo not given)	?	?
CC(CCC#N)[N+](=O)[O-] (stereo not given)	-3%	?
CCC(C)(C)OC(=O)N[C@@H](Cc1c[nH]c2ccccc12)C(=O)N[C@@H](CCSC)C(=O)N[C@@H](CC(=O)O)C(=O)N[C@@H](Cc1ccccc1)C(N)=O	-4%	-1%
COCc1cc(O)c(O)c(O)c1-c1c(COC)cc(O)c(O)c1O	-14%&-15%	7.9µM*
C=CC[C@@]1(C(=O)OC)C=C[C@@H](C)[C@H](c2ccccc2Br)N1C(=O)C(F)(F)F	?	-11%[8.59 µM]
COc1cc(O)cc(O)c1	10%	1%
OC[C@@H](O)C(O)[C@H](O)CO	-8%	8%
CC12CCC3c4ccc(OCc5ccccc5)cc4CCC3C1CC(O)C2O (stereo not given)	-16%	8%
C=C(C)C1CC=C(C)CC1 (stereo not given)	-3%	0%
O=C(O)c1[nH]n(-c2ccc(S(=O)(=O)O)cc2)c(=O)c1N=Nc1ccc(S(=O)(=O)O)cc1	4µM*	?
CCCCCl	2%	5%
C/C=C(/C)C(=O)OC1C(OC(C)=O)[C@@]2(CO)C(O)C[C@@]3(C)C(=CCC4[C@@]5(C)CCC(OC6OC(C(=O)O)[C@@H](O[C@@H]7OC(CO)C(O)C(O)C7O)C(O)[C@H]6O[C@@H]6OC(CO)C(O)C(O)C6O)[C@](C)(CO)C5CC[C@@]43C)C2CC1(C)C (stereo not given in full)	?	?

(next part)
SMILES	Lassa entry	Marburg entry
Cc1nnsc1C(=O)NCC1Cc2cccc(-c3ncccn3)c2O1 (stereo not given)	2%	-7%
Cc1ncc2c(c1CNS(=O)(=O)N(C)C)CCN(C(=O)c1ccccc1F)C2	11%	12%
C=CCN1C(=O)C2(CC(C)=C[C@@H](C)O2)c2c(Br)cccc21 (stereo not given in full)	-1%[8.59 µM]	26%[8.59 µM]
C/C(=C\CNc1ncnc2nc[nH]c12)CO	6%	-4%
COc1cc2c3cc1Oc1c(OC)c(OC)cc4c1C(Cc1cccc(c1)Oc1ccc(c(O)c1)CC3N(C)CC2)N(C)CC4 (stereo not given)	-4%	-5%
COCCN1C=C2C(=O)C(C)(OC(=O)C3CCCC3)C(=O)C=C2C=C1c1ccsc1 (stereo not given)	·	6%[8.59 µM]
CC(C)(C)Nc1oc(-c2ccccc2)nc1-c1ccc(C(F)(F)F)cc1	18%	-2%
C[C@H]1C(c2ccc(F)cc2)=NN(c2ccccc2)[C@@H]1CO	-20%	1%
N#Cc1ccc2c(c1)N(CCCN1CCC(O)CC1)c1ccccc1S2	-9%	20µM*
CC(C)CCC[C@@H](C)[C@H]1CC(=O)C2=C3CC[C@H]4C[C@@H](O)CC[C@]4(C)[C@H]3CC[C@@]21C	-23%	25%
CCOCCOC(=O)C(C)Oc1ccc(Oc2ncc(C(F)(F)F)cc2Cl)cc1 (stereo not given)	-6%	0%
O=C(O)Cc1cccnc1C(=O)O	0%&-10%	14%&2%
CN1CC[C@@]23c4ccccc4N[C@H]1[C@]21CCN(C)[C@@H]3Nc2ccccc21	-7%[17.8 µM]	?
COCC(=O)Nc1cc(C(=O)NC2C3CC4CC2CC(O)(C4)C3)cc2nc(-c3ccccc3)n(C)c12 (stereo not given)	2%	2%
COc1ccccc1CNc1ncncc1-c1cccc(C#N)c1	-8%	-2%
CC(CC=O)CCCC(C)(C)O (stereo not given)	-29%	-3%
O=C(c1ccc(Nc2nccc(-c3cc4ccccc4s3)n2)cc1)N1CCC(N2CCCC2)CC1	?	2.2µM*
COc1ccc(CN2CCN(C(C)=O)CC2)cc1OC1CCN(C(=O)c2ccc3ccccc3n2)CC1	-7%	?
Cc1cccc(CNc2ncncc2-c2ccc3c(c2)OCO3)c1	0%	-28%
Fc1ccc(Nc2nc(-c3cccnc3)nc3ccccc23)cc1	-1%	-21%
COC(=O)C(C(=O)OC)C1OC23CN(S(=O)(=O)c4ccc(C)cc4)C=CC2(C)C3c2ccccc21 (stereo not given)	0%[8.59 µM]	-26%[8.59 µM]
Nc1nc(Cl)nc2c1ncn2C1OC(CO)C(O)C1F (stereo not given)	2.5µM*	2.8µM*
CCOC(=O)NN=C1C[C@@H](O)[C@@H](O)[C@@H]2[C@H]3C(=O)N(c4ccc(F)cc4F)C(=O)[C@@H]3CC[C@H]12	9%[8.59 µM]	-21%[8.59 µM]
Cc1cccc(CNc2ncnc3ccc(-c4cccc(NS(C)(=O)=O)c4)cc23)c1	?	-18%
COC(=O)C1=C(C)N(Cc2ccccc2)C(=NCC2CC2)NC1c1ccccc1 (stereo not given)	-12%&16%[8.59 µM]	-1%&-13%[8.59 µM]

Arranged by heavy-atom count (low to high): part of the list above.
SMILES	Lassa entry	Marburg entry
COc1cc(O)cc(O)c1	10%	1%
C=CCN1C(=O)C2(CC(C)=C[C@@H](C)O2)c2c(Br)cccc21 (stereo not given in full)	-1%[8.59 µM]	26%[8.59 µM]
O=C(/C=C/c1ccc(O)c(O)c1)NC(=O)c1ccccc1O	1%	46%[activator]
COc1ccccc1CNc1ncncc1-c1cccc(C#N)c1	-8%	-2%
N#Cc1ccc2c(c1)N(CCCN1CCC(O)CC1)c1ccccc1S2	-9%	20µM*
CCOC(=O)C1(C(C)C)Oc2ccccc2C(c2ccc(OC)cc2)=C1C(=O)OC (stereo not given)	?	-16%
CC(C)OCCCN1C=C2C(=O)C(C)(OC(=O)C3CCCC3)C(=O)C=C2C=C1c1ccsc1 (stereo not given)	-17%[8.59 µM]	?
COc1ccc(CN2CCN(C(C)=O)CC2)cc1OC1CCN(C(=O)c2ccc3ccccc3n2)CC1	-7%	?
COc1cc2c3cc1Oc1cc(ccc1O)C[C@@H]1c4c(cc(OC)c(O)c4Oc4ccc(cc4)C[C@@H]3N(C)CC2)CC[N+]1(C)C	-9%	1%
CC(C)OC(=O)c1cn(Cc2c(F)cccc2F)c2sc(-c3ccc(NC(=O)C(C)C)cc3)c(CN(C)Cc3ccccc3)c2c1=O	16µM*	2.5µM*
CCC(C)(C)OC(=O)N[C@@H](Cc1c[nH]c2ccccc12)C(=O)N[C@@H](CCSC)C(=O)N[C@@H](CC(=O)O)C(=O)N[C@@H](Cc1ccccc1)C(N)=O	-4%	-1%
CC(C)[C@H](NC(=O)[C@H](CCC(=O)O)NC(=O)[C@H](Cc1ccccc1)NC(=O)[C@@H](C)NC(=O)[C@@H](N)Cc1ccc(O)cc1)C(=O)N[C@H](C(=O)NCC(N)=O)C(C)C	-4%	3%
CCC1=C[C@@H]2CN(C1)Cc1c([nH]c3ccccc13)[C@@](C(=O)OC)(c1cc3c(cc1OC)N(C)[C@H]1[C@@](O)(C(=O)OC)[C@H](OC(C)=O)[C@]4(CC)C=CCN5CC[C@]31[C@@H]54)C2	13µM*!	1.4µM*!

Later entries.
SMILES	Lassa entry	Marburg entry
CC[C@H]1C(c2ccccc2)=NN(c2ccccc2)[C@@H]1CO	-10%	6%
CS/C(N)=C(C#N)/C(C#N)=C(\N)SC	3%	11%
C=C1c2cccc(OC)c2O[C@H](C(=O)OCC)[C@@H]1CCCCCC	-14%	-4%
O=C(O)CNC(=O)CNC(=O)CNC(=O)CSC(=O)c1ccccc1	-16%	-2%
COC(=O)CCC(=O)OC1(C)C(=O)C=C2C=C(C3CC3)N(c3ccc(CO)cc3)C=C2C1=O (stereo not given)	1%[8.59 µM]	-1%[8.59 µM]
COc1ccc(O)c(CN2CCC3(CC2)c2ccccc2[C@@H](NC(=O)c2cccc(F)c2)[C@@H]3OC)c1	-28%	?
Cc1nc(C(=O)N(Cc2cc3ccc(F)cc3nc2N2CCC(O)CC2)CC2CCCO2)cs1 (stereo not given)	6%	0%
Cc1cccc(Nc2ncccc2C(=O)O)c1C	-8%	18%
COc1ccc2c(c1)O[C@@H](c1cccc(C(F)(F)F)c1)[C@H](OC(=O)Nc1cc(OC)c(OC)c(OC)c1)C2=O	0%	?
CC(C)c1c(C(=O)NCc2ccncc2)cnn1-c1nccc(-c2cccs2)n1	4%	-23%
CCC(=O)OC1(C)C(=O)C=C2C=C(C3CC3)OC=C2C1=O (stereo not given)	1%	-25%
COc1ccc2c(c1)O[C@@H](c1cccc(C(F)(F)F)c1)[C@H](OC(=O)N[C@H](C)C1CCCCC1)C2=O	1%	10%
Cc1ccc2c(CN(C)Cc3ccccc3)cc(=O)oc2c1	-36%	?
